Assay outcomes deposited in PubChem by National Center for Advancing Translational Sciences (NCATS).
GLA inh pH 4.5 = blocks human alpha-galactosidase A at pH 4.5. 230,000 tested, under 10 active. activity change, negative = inhibition, % at 105 µM. purified enzyme, 4-MU-alpha-Gal fluorescence, pH 4.5. P06280; inconclusive = small, poorly fitted or top-dose-only inhibition, or a rising curve; inactive = flat fitted curve, though single readings scatter; no compound was filed as active;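 also: 0% = full activity with enzyme and -100% = basal without enzyme; dose as in the result columns while the protocol names 77 µM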
Rango-impB inh = Rango-importin beta binding inhibition. Potency, µM (series often up to 92.2 µM), for the others: top-dose inhibition of complex formation. actives 0.031% (n = 340,000). Rango CFP/YFP FRET sensor + importin beta, 45 min; active = rising FRET ratio curve, often small or poorly fitted; inconclusive = mostly compound fluorescence or quenching in the first reads; inactive = flat curves in all reads;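 also: potency is read from the fitted curve at half-maximal effect; 0% = DMSO wells and 100% = buffer wells lacking importin beta; nearly all actives have a fitted effect of over 15% in size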
Target sequence (Q14974 whole entry, looked up): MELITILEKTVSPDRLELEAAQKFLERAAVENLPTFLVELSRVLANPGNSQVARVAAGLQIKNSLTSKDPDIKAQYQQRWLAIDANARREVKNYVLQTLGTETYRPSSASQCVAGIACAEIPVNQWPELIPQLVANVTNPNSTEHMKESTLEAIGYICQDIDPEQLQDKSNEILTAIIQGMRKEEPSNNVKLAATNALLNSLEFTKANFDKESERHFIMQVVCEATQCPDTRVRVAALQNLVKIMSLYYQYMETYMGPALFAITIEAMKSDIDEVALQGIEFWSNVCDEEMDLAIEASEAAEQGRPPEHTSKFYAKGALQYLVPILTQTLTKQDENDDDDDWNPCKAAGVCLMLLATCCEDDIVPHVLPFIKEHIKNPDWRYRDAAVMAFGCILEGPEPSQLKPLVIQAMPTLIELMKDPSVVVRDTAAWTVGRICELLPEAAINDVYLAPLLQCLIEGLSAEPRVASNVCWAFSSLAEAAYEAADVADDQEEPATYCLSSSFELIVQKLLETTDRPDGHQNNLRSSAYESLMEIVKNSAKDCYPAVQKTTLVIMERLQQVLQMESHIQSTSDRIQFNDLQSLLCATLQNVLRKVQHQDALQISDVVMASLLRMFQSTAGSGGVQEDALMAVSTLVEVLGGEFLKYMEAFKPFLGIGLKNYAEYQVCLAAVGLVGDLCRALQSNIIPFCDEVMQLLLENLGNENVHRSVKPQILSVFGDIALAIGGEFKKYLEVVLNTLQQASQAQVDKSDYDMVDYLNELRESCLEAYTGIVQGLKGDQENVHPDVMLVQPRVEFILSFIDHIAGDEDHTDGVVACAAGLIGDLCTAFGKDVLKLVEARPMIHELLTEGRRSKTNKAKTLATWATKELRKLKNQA
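Inhibition scored from the CFP 486 nm/YFP 530 nm FRET ratio 45 min after adding 0.125 microM importin beta to 50 nM Rango biosensor preincubated 5 min with compound (room temperature, PBS with DTT, Tween-20, BSA). No-importin wells as positive control.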
miR-21 FLuc = miR-21 reporter, rising signal. HeLa miR-21 FLuc reporter, luciferase, 48 h. Potency, µM (titrated, usually from 38.3 µM), without a hit: at the top dose reporter change, positive = more light. 340,000 tested, under 10 active. AID 2288; active = well fitted rising curve with a large enough effect; inconclusive = small, poorly fitted or top-dose-only effect; inactive = no such curve, though single readings can be large or run the other way;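 also: % of control where 0% means no effect; miR-21 action dims this reporter so a rising signal means less miR-21 action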
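HeLa miR-21-FLuc reporter line, endogenous miR-21; 2000 cells/well in DMEM/10% FBS; compound titration up to ~40uM final, 48 h, 37 degree Celsius; luciferase detection reagent, 15 min lysis, CCD luminescence.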
Rango release inh = prevents RanGTP from dissociating the Rango-importin beta complex; O95149+P62826; Biochemical FRET Rango-importin beta, RanGTP-induced dissociation; Potency, µM (highest dose often 46.1 µM), for the others: at the top dose activity change, negative = inhibition; actives 0.071% (n = 340,000); active means falling FRET ratio curve, often poorly fitted, with flat reads before Ran was added; inconclusive means other falling curves, or compound fluorescence or quenching; inactive means flat or rising ratio curve;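 also: potency is read from the fitted curve at half-maximal effect; % of control where 0% means no effect; nearly all actives have a fitted effect of over 45% in size; -100% = wells without RanGTP and RCC1; the record marks most hits as doubtful in a second field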
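Rango FRET biosensor (snurportin-1 IBB flanked by N-terminal EYFP and C-terminal CFP10) at 0.1 uM, with 0.25 uM importin beta in PBS, 1mM DTT, 0.02% Tween-20, 0.1% BSA. 0.6 uM Ran, 2mM GTP and 0.2 uM RCC1 were then added for 45 min at room temperature. Inhibition read as loss of FRET rise.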
The depositor's hits bear a star; u = inconclusive; x = no result given; & = joins results of further samples; [ ] = another dose, or the depositor's remark.

Every second line gives: GLA inh pH 4.5 | Rango-impB inh | miR-21 FLuc | Rango release inh
CCOC(=O)N1CCC(=NNC(=O)c2ccccc2F)CC1
→ 6 | 6.0% | -57% | 7%
Cc1ccc(NC(=O)c2ccccc2OCC(=O)c2ccc(F)cc2)cc1
→ 1 | 9.7% | -4% | 1%
CC(=O)c1ccc(NC(=O)CCn2c(=S)oc3ccccc32)cc1
→ x | 1.2% | -1% | 5%
Nc1nc(CSc2ccc(Cl)cc2)nc(N2CCCCC2)n1
→ -5 | -1.0% | -22% | -14%
Cc1nn(-c2ccc(Cl)cc2)c2sc(C(=O)N3CCN(C(=O)c4ccco4)CC3)cc12
→ 5 | x | -3% | x
O=C(O)/C=C/C(=O)N1Cc2cc3ccccc3nc2C1
→ -22 | u | -2% | -10%
CC(C)Sc1nc2sccc2c(=O)n1-c1ccccc1
→ x | 0.3% | -4% | -1%
COc1ccc(C(=O)NCc2ccc(-c3nc4ccccc4s3)cc2)cc1
→ -5 | 1.8% | -43% | -20%
CNC(=O)c1ccccc1S(=O)c1ccccc1C#N (stereo not drawn)
→ 9 | -0.8% | -1% | 3%
CCN(C(=O)CN1C(=O)NC2(CCc3ccccc32)C1=O)C1CCCCC1 (stereo not drawn)
→ x | -0.1% | x | -13%
O=C(N/N=C(\CC(=O)c1cccs1)C(F)(F)F)c1cccnc1
→ -11 | 0.7% | -5% | -6%
CCCOc1ccc(N2C(=O)CC(N(Cc3ccc(S(N)(=O)=O)cc3)C(=O)CC)C2=O)cc1 (stereo not drawn)
→ -2 | 0.0% | -4% | 7%
Cc1onc(-c2ccccc2)c1C(=O)Nc1ccc(S(=O)(=O)N2CCCC2)cc1
→ -3 | -2.8% | -28% | -8%
CCOc1cc(S(=O)(=O)N(CC)CC)ccc1Br
→ -11 | -3.2% | -17% | -15%
O=C(O)c1[nH]c2ccccc2c1NS(=O)(=O)c1ccc(F)cc1
→ x | -3.1% | -3% | -30%
COc1cc(C(=O)Nc2nnc(C)s2)cc(OC)c1OC
→ -25 | -2.7% | -2% | 12%
CCCCC(=O)NCCNc1nc2c(c(=O)n(C)c(=O)n2C)n1Cc1ccccc1
→ 1 | -4.2% | -4% | -3%
CCCCCCCCNS(=O)(=O)CCNCCc1ccccc1
→ x | 73µM* | x | 44%
CCOC(=O)CSc1nc2ccc(Nc3nc(N4CCOCC4)nc(N4CCOCC4)n3)cc2s1
→ 2 | 2.3% | -6% | -2%
CC12CCC(C(=O)N(CCCN3CCN(Cc4ccccc4)CC3)C1=O)C2(C)C (stereo not drawn)
→ 8 | -1.8% | 3% | 3%
O=C(COc1ccccc1)N=C1SC2CS(=O)(=O)CC2N1CCc1ccccc1 (stereo not drawn)
→ x | 2.5% | 1% | -12%
CC1=C(C)CC(C(=O)NCc2ccccn2)C(C(=O)O)C1 (stereo not drawn)
→ 2 | 4.6% | -3% | 2%
CCOC(=O)c1ccc(Nc2ccc([N+](=O)[O-])cn2)cc1
→ -2 | -1.8% | -49% | -10%
CN(C)c1cccc(C(=O)NCc2ccc3c(c2)OCO3)c1
→ x | -3.7% | -20% | 0%
CSc1cc(C)nc(N(C)C(C)=O)n1
→ 1 | u | 4% | -9%
CC(C)Oc1ccc(C(=O)NC2CCS(=O)(=O)C2)cc1 (stereo not drawn)
→ 6 | -0.8% | -12% | 11%
O=C(NC(=S)Nc1ccc(CN2CCOCC2)cc1)c1cccc(F)c1
→ x | -5.5% | -22% | 0%
CCOC(=O)C(C)N1N=C(/C=C/c2ccc(C)cc2)CCC1=O (stereo not drawn)
→ -6 | -3.4% | -5% | -6%
COc1ccc(N2CCCCn3c2nc2c3c(=O)n(C)c(=O)n2C)cc1
→ -6 | -0.2% | -6% | 0%
O=C(NCCO)/C(=C\c1ccc([N+](=O)[O-])o1)NC(=O)c1ccccc1
→ 5 | 2.8% | 0% | 1%
NNc1nnnc2c1sc1nc(N3CCOCC3)c3c(c12)CCCC3
→ 1 | 1.0% | -9% | 3%
Cc1cc(NC(=O)CCC(=O)N(c2ccccc2)C(C(=O)NC2CCCC2)c2ccccc2F)no1 (stereo not drawn)
→ x | -0.4% | 10% | 10%
CC(C)(C)S(=O)(=O)N1Cc2cc(=O)n(Cc3ccccc3)c(CCO)c2[C@H]1CCO
→ x | 0.2% | x | -9%
COC(=O)C1=C(C)N(C)C(=S)NC1c1c(OC)ccc2ccccc12 (stereo not drawn)
→ 3 | -7.4% | 0% | -4%
CCN1/C(=C/c2cccc[n+]2C)Sc2ccc(OC)cc21
→ x | u | u | -14%
COc1ccc(/C=N/Nc2ccc(C(F)(F)F)cc2[N+](=O)[O-])cc1O
→ -4 | -0.1% | -8% | 7%
Cc1ccc(CNC(=O)CN2CCC(C(N)=O)CC2)cc1
→ 1 | -0.4% | -3% | -14%
CC(C)(C)c1ccc(C(=O)NNC(=S)NC(=O)c2cccnc2)cc1
→ x | -1.4% | 17% | -6%
O=C(NCc1ccco1)C1CCN(C(=O)Cc2ccccc2)CC1
→ 5 | 1.5% | -4% | 4%
O=C(N/N=C/c1cccc2ccccc12)c1ccc(CN2CCOCC2)cc1
→ x | -1.1% | 5% | -12%
O=C(CSc1nnc(NC(=O)c2ccco2)s1)Nc1ccc(F)cc1
→ -6 | -1.5% | -7% | -2%
COc1ccccc1N1CCN(C(CNS(=O)(=O)c2cccs2)c2cccnc2)CC1 (stereo not drawn)
→ 2 | 0.1% | -2% | 8%
CCN(CC1CCCO1)C(=O)c1cc(COc2cc(C)c(Cl)c(C)c2)on1 (stereo not drawn)
→ x | 0.1% | -49% | -7%
C=CCNc1oc(-c2ccc(-c3ccccc3)cc2)nc1C#N
→ x | 1.6% | x | 22%
O=C(O)C[C@H]1c2cc(C(F)(F)F)ccc2S(=O)(=O)N1Cc1ccccc1
→ x | -5.1% | x | 6%
Nc1nncn1C(=O)c1cccs1
→ 0 | -5.9% | -3% | 6%
O=C(Nc1cccc(F)c1)/C(=C/c1ccco1)NC(=O)c1ccco1
→ x | u | -4% | -26%
C/C(Cc1ccccc1)=N\NC(=O)CNC(=O)c1ccc(Cl)cc1Cl
→ 5 | -0.1% | 0% | 4%
COc1ccc(C(=O)NCCCNC(=O)c2cc3ccccc3[nH]2)cc1OC
→ x | -1.1% | -10% | 21%
O=C(c1ccccc1)N1CCN(Cc2cccc(Oc3ccccc3)c2)CC1
→ -1 | 1.4% | 16% | -7%
COc1cc2c(cc1OC)CN(c1ccc([N+](=O)[O-])cc1Cl)CC2
→ -5 | -0.2% | 6% | -5%
Nc1nnc(Cc2ccc(Cl)cc2Cl)s1
→ 12 | -0.2% | -11% | -13%
COC(=O)CNC(=O)C(C)NC(=O)CNC(=O)OCc1ccccc1 (stereo not drawn)
→ -1 | 2.6% | -2% | 1%
CN(C)C(=O)c1ccc(NC(=O)COC(=O)c2cc3c(s2)CCCCC3)cc1
→ x | -1.8% | x | 0%
CCOc1ccc(-c2c(C(=O)N/N=C/c3ccncc3)nnn2-c2nonc2N)cc1
→ x | 0.3% | 2% | -13%
O=C1[C@H]2CCCC[C@H]2C(=O)N1CCCCN1CCN(c2nsc3ccccc23)CC1
→ x | -2.2% | x | 1%
CC(C)(C)NC(=S)Nc1ccc(Br)cc1
→ -11 | -0.7% | -9% | -4%
O=C(CCC1CCCC1)N1CCN(C(=O)C2CC2)CC1
→ 3 | -1.0% | -12% | 0%
O=C(NC1(O)C(=O)c2ccccc2C1=O)c1ccc(C(F)(F)F)cc1
→ 5 | -0.1% | 11% | 5%
CCN(c1ccccc1)S(=O)(=O)c1ccc(Cl)c(C(=O)OCC(=O)c2[nH]c(C)c(C(C)=O)c2C)c1
→ -9 | -2.2% | -9% | 2%

Compound profiles, as listed above. Order of values: GLA inh pH 4.5	Rango-impB inh	miR-21 FLuc	Rango release inh
`O=C(CSc1nnc(NC(=O)c2ccco2)s1)Nc1ccc(F)cc1` reads -6	-1.5%	-7%	-2%
`COc1cc2c(cc1OC)CN(c1ccc([N+](=O)[O-])cc1Cl)CC2` reads -5	-0.2%	6%	-5%

Following part:
Every second line gives: GLA inh pH 4.5 | Rango-impB inh | miR-21 FLuc | Rango release inh
COc1ccc(OC)c(-c2nc(C(=O)NCC3CCCO3)cc3c2[nH]c2ccccc23)c1 (stereo not drawn)
→ x | 0.6% | 11% | -13%
COCCNC(=S)N1CCc2cc(OC)c(OC)cc2C1COc1ccc(F)cc1 (stereo not drawn)
→ 1 | -3.3% | -7% | -10%
Cc1ccc(NC(=O)c2ccc(CN3CC(=O)N4CCCCC4C3=O)cc2)c(C)c1 (stereo not drawn)
→ x | 4.2% | 0%&-2% | 35%
CC12COC3(C(=O)Nc4ccc(F)cc4)CC1CCC32C (stereo not drawn)
→ x | 1.6% | -9% | 1%
COc1ccc(CNC(=O)C(C)N2C(=O)COc3ccc(C)cc32)c(OC)c1 (stereo not drawn)
→ 2 | -1.8% | -1% | 24%
COc1ccc(CCNC(=O)CCCn2ncn3c(cc4occc43)c2=O)c(OC)c1
→ x | -1.7% | -5% | -9%
Cn1cnnc1SCCC(=O)Nc1ccc(Cl)cc1
→ 6 | -1.5% | -21% | -4%
O=C(Cn1nc(-c2ccc(Cl)cc2)c2ccccc2c1=O)NN1CCOCC1
→ -2 | 3.5% | 0% | 1%
CC/C(=N\NC(=O)c1c(-c2ccccc2)noc1C)c1ccc(C)o1
→ 9 | 0.5% | -4% | 9%
CC(C)C(NC(=O)c1ccc(Cl)cc1)C(=O)O (stereo not drawn)
→ 3 | 6.9% | -2% | -7%
COc1ccccc1NC(=O)c1cc(-c2ccc(OC)c(OC)c2)nc2ccccc12
→ x | -0.2% | 3% | -5%
CCCN(CCC)S(=O)(=O)c1cccc(C(=O)Nc2ccc3c(c2)OCO3)c1
→ -1 | -1.3% | 5% | 10%
COc1cc(-c2[nH]ncc2CN2CCN(Cc3cccs3)CC2)cc(OC)c1OC
→ 4 | -2.9% | 6% | 4%
CCN(CCCNC(=O)COc1cc(=O)n(C)c2ccccc12)c1cccc(C)c1
→ 4 | -6.1% | 7% | 0%
Cc1cccc(COc2ccc(/C=C3/C(=O)N(C)C(=S)N3C)cc2)c1
→ x | u | -12% | u
Cc1ccc(S(=O)(=O)N2CCC(=O)N(CCOC(=O)NCc3ccccc3)CC2)cc1
→ -4 | 1.7% | -19% | -15%
CCCOc1ccc(C(=O)Nc2ccc(CN3CCOCC3)cc2)cc1
→ x | 0.1% | 5% | -14%
Cc1ccc(C(=O)OCc2nnc(-c3ccccc3)o2)cc1S(=O)(=O)N1CCOCC1
→ x | 4.8% | x | 0%
Cc1ccc2nc(SC(C)C(=O)NCc3ccco3)[nH]c2c1 (stereo not drawn)
→ 13 | 0.4% | -8% | 11%
COCc1cc(C)n(CC(=O)Nc2ccccc2C(=O)OC)c(=O)c1C#N
→ -3 | u | -3% | -5%
O=c1[nH]ncn1-c1ccccc1C(F)(F)F
→ -2 | 4.9% | -3% | -8%
O=S(=O)(NCCO)c1cccc2cccnc12
→ 3 | 1.5% | -4% | -1%
COc1ccc(NC(=O)CSc2cc(C(=O)c3nccn3C)c3ccccc3n2)cc1
→ -2 | 0.8% | 2% | 0%
CC(=O)Nc1ccc(NS(=O)(=O)c2ccc3ccccc3c2)cc1
→ 4 | 0.2% | 9% | 1%
Cc1ccccc1C(=O)NCC(=O)OC(C)C(=O)Nc1cccc(S(=O)(=O)N2CCOCC2)c1 (stereo not drawn)
→ x | -3.5% | x | 16%
COc1cc(/C=N/NC(=O)COc2ccccc2C)ccc1OC(=O)c1cccs1
→ -6 | -4.3% | -5% | -5%
COC(=O)/C=C1\SC(=NC(=O)c2cccc([N+](=O)[O-])c2)NC1=O
→ x | 2.3% | 0% | 11%
Cc1noc(C)c1C(=O)OCC(=O)Nc1ccc(N2CCOCC2)cc1
→ x | 1.4% | x | 29%
Clc1cccc(/C=N/Nc2ncnc3ccccc23)c1
→ -7 | -0.4% | -49% | 5%
Cc1cccc(NC(=S)NCc2ccco2)n1
→ 4[21.1 µM] | -0.3% | -5% | 16%
C#CCn1c(S(=O)(=O)Cc2ccccc2Cl)nc(-c2ccccc2)c1-c1ccccc1
→ 7 | 0.8% | 2% | -12%
COc1ccc(C(C(=O)NC2CCCCC2)N(Cc2ccco2)C(=O)c2ccccn2)c(OC)c1 (stereo not drawn)
→ x | -1.9% | 2% | 7%

A portion of the library. The share of hits here may be higher or lower than overall.
